# Screening data (PubChem BioAssay)
# HSV replic up: enhancers of HSV replication in host cells, fold increase, host cell viability | HSV replication augmentation in cells | maximum fold increase | actives 0.005% (n = 220,000) | AID 1956, 2009;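 active = peak rise of 1.5-fold or more in the series; inconclusive = self-fluorescent or not available for retest; tested in PC3 cells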;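 also: first round at 10 µM; read as green reporter fluorescence; hits show the peak of a series up to 25 µM; 1 = signal of infected wells without compound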
# RGS16-Gao: modulators of RGS16 binding to Galphao, primary screen, biochemical, human proteins, multiplexed bead flow cytometry | bead-based flow cytometry RGS16-Galphao binding, fluorescence; actives lie on both sides | actives 0.38% (n = 220,000) | Regulator of G-protein signaling 16 (Homo sapiens) + Guanine nucleotide-binding protein … | AID 1441, 2008 | binding response (% of control), % at 10 µM;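 active = below 25% or above 175%, edge rows of some plates excepted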;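 also: Galphao activated by GDP with aluminum fluoride before binding; 100% = wells without compound and 0% = beads without RGS; some results beyond the cut were filed as inactive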
# PKD1 inh: inhibitors of human PKD1 kinase, biochemical, fluorescence polarization; actives 0.056% (n = 200,000); Serine/threonine-protein kinase D1 (Homo sapiens), Q15139; inhibition, %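 (about 10 µM by stock and volumes)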; AID 797, 2007; PKD1 kinase fluorescence polarization assay;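 active = inhibition of 50% or more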;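 also: controls were vehicle for no effect and a reference inhibitor for full effect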
# Target sequence (Q15139 whole entry, looked up): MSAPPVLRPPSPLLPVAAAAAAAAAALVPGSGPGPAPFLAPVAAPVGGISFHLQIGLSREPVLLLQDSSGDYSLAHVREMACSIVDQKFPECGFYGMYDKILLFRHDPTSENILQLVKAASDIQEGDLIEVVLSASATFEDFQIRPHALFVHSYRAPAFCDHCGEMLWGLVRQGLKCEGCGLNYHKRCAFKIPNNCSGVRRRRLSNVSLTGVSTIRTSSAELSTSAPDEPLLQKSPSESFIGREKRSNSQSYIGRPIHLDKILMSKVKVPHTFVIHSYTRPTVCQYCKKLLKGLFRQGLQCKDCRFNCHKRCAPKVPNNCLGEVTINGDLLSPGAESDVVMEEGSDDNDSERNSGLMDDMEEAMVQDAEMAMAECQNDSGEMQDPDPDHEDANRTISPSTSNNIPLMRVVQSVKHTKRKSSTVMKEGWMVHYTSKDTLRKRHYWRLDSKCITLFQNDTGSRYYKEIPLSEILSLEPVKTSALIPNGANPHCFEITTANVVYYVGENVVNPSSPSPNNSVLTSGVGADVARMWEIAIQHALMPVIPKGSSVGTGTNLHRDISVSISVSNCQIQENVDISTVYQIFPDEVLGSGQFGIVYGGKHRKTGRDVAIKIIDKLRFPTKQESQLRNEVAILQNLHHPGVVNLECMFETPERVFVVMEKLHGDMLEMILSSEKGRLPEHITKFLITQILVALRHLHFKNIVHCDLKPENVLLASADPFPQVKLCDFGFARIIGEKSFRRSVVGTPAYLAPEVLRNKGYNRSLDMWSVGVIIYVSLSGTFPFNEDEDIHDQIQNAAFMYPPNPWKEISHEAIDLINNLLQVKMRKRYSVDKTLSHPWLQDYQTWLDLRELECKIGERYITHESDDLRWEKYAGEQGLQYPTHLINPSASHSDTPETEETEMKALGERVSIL
# GALR2 ag: GALR2 receptor agonists, primary screen, cell-based; GALR2-expressing cells, agonist activation read-out; activation, %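 (tested at 5 µM)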; actives 0.48% (n = 140,000);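 active = above mean plus 3 SD of all compounds, about 5% in these data, not always enough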;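 also: 0% = vehicle buffer wells and 100% = reference agonist at full effect; tested in CHO reporter cells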
# INS promoter inh: inhibitors of insulin promoter-driven GFP, primary screen, imaging, TRM-6 cells (human fetal islet line), eGFP reporter, cell count. reporter expression induced with tamoxifen. inhibition, % at 2 µM. actives 0.9% (n = 130,000). AID 1273, 2008;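 active = inhibition above the mean plus 3 SD, with well images judged a real hit on visual review, cut at about 60% in these data, passing the limit was not always enough; inconclusive = inhibition over the cutoff but images rejected on review; inactive = inhibition not above the cutoff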
# INS promoter inh cell count: second read-out of INS promoter inh, no call of its own (marks repeat the call); normalized cell count, %; measured here: cell count, toxicity; reference of the scale not given here;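 cells exposed to compound for 48 h; stained nuclei by imaging scaled within each plate; lower means fewer cells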
# HSV replic up primary fold: recorded beside HSV replic up, whose call it bears; fold increase; compound at 10 µM; measured here: primary screen fold increase 10 uM; tested in PC3 cells;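 GFP signal in the first replicate; 1 = infected wells without compound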
# * hit, by the source's call; i = inactive; ? = inconclusive; . = no result given.
SMILES,HSV replic up,HSV replic up primary fold,RGS16-Gao,PKD1 inh,GALR2 ag,INS promoter inh,INS promoter inh cell count
COc1ccc(CN2CCN(C(C)C)C(CCO)C2)cc1Cn1cncn1 (stereo unspecified),i,1.2,95,-1,.,.,.
CCOC(=O)CC1C(=O)NCCN1C(=O)Nc1ccccc1 (stereo unspecified),i,0.92,100,0,-1.1,18,89
CN(C)S(=O)(=O)c1ccc(NC(=O)c2cc3ccccc3o2)cc1,i,0.87,112,-3,-2.7,.,.
COc1c(Cl)cc(-c2noc(C)c2C(=O)NC(C)C)cc1Cl,i,1,101,-9,0.4,-20,134
Oc1c(Br)cc(C=Nc2ccc3nc(-c4ccccc4)[nH]c3c2)c(O)c1Br,i,1.1,98,5,.,.,.
CCOc1ccccc1NC(=S)Nc1ccc(S(N)(=O)=O)cc1,i,1,99,-4,.,.,.
CCc1ccccc1NC(=O)NC1CC2CCC(C1)N2Cc1cccs1 (stereo unspecified),i,1,103,-1,-1.2,3,132
CC1(C)C(O)=C(c2nc3ccccc3[nH]2)C(=N)N1c1ccccc1,i,1,102,-2,-1.7,5,181
N#Cc1c(N)nc2c(c1-c1ccncc1)CCCC2,i,0.95,101,5,-0.3,0,93
N#C/C(=C\c1ccc(-c2cccc([N+](=O)[O-])c2)o1)C(=O)N1CCOCC1,i,0.96,109,3,.,-7,83
COCCn1c(-c2ccc(OC)cc2)cnc1N,i,0.9,163,-4,1.6,19,89
COc1ccc(-c2cc(C(F)(F)F)n3nc(C(=O)N4CCCCC4)cc3n2)cc1OC,i,0.97,98,-4,3.0,43,143
Cc1ccc(S(=O)(=O)N2CCC(=O)N(C(COCc3ccc(Cl)cc3)C(C)C)CC2)cc1 (stereo unspecified),i,0.9,100,-4,-0.7,-57,94
Cc1ccsc1CNn1cnnc1SCc1ccccc1F,i,0.99,108,0,0.0,86*,29*
O=C(COc1ccccc1)N/N=C/c1ccc(O[C@@H]2O[C@H](CO)[C@@H](O)[C@H](O)[C@H]2O)cc1,i,0.97,101,-12,-0.5,-4,169
Cc1cccc(NC(=O)CSc2nnnn2C)n1,.,.,104,-5,-1.1,-46,247
Cn1c2ccccc2c2nnc(SC3CCOC3=O)nc21 (stereo unspecified),i,0.6,99,-11,-0.3,.,.
CC(C)(O)C#Cc1ccc(CN2CCN(C3CCCC3)C(CCO)C2)cc1 (stereo unspecified),i,1,102,-6,.,.,.
Cc1oc2ccc(O)c(CN3CCOCC3)c2c1C(=O)c1ccc(Cl)cc1,i,0.96,104,0,-0.2,.,.
Cc1ccc2nc(-c3ccc(NC(=O)CN(c4ccccc4C)S(C)(=O)=O)cc3)sc2c1,i,0.77,18,1,-0.4,.,.
Nc1nnnn1/N=C\c1ccc(Cl)c([N+](=O)[O-])c1,i,0.87,105,-2,0.0,25,80
COc1ccc(OCCn2cncn2)cc1,i,1,104,-6,-3.5,-4,124
CC(C)NC(=O)c1noc2cc([N+](=O)[O-])ccc12,i,0.82,126,-10,-2.3,-23,114
CCCS(=O)(=O)N1CCC(C(=O)N2CCOCC2)CC1,i,0.99,99,3,-1.5,.,.
O=c1cc(NCC2CCCO2)[nH]c(=O)n1-c1ccc(Cl)cc1 (stereo unspecified),i,1,41,3,-0.8,-31,85
Cc1nc(NC(=O)c2ccc(Br)o2)sc1C,i,0.88,109,-7,-1.7,-10,154
NNC(=O)c1cn2ccccc2n1,i,1,103,-8,-4.1,-36,97
CC(C)CCc1noc(CN2CCC(CCN3CCCC3=O)CC2)n1,i,1,102,-1,.,.,.
O=C(O)CSc1nc2ccccc2c(=O)[nH]1,i,0.98,99,-1,-0.6,0,114
Cc1c(C(=O)OC(C)C(C)C[N+](C)(C)C)oc2ccccc12 (stereo unspecified),i,0.87,99,-1,-2.2,-2,80
CCOc1cc(C(=O)OCC(=O)Nc2c(C)cccc2C)ccc1OCC(=O)N1CCOCC1,i,1.1,111,-3,-0.9,27,100
O=C(CC1SC(=O)N(c2ccccc2)C1=O)Nc1ccc(Cl)cc1 (stereo unspecified),i,0.94,96,.,.,.,.
Cc1cccc(C)c1Nc1c(-c2ccc(N3CCOCC3)cc2)nc2cnccn12,i,1.1,80,.,.,.,.
Cc1ccccc1C(=O)Nc1nnc(-c2ccco2)o1,i,0.96,102,0,.,.,.
N#Cc1ccc(C(=O)Nc2nnc(-c3ccccn3)o2)cc1,i,0.94,90,0,-1.0,.,.
CCCc1cc(-c2nc(N)ncc2-c2ccc3c(c2)OCCCO3)c(O)cc1OC,i,0.88,110,0,-1.0,17,141
Clc1cccc(CSc2ccc(-c3ccco3)nn2)c1,i,0.94,92,1,.,0,129
Cc1ccccc1Cn1cc(NC(=O)c2cc3nc(-c4ccco4)cc(C(F)(F)F)n3n2)cn1,i,0.87,97,5,-1.5,.,.
CC(=O)c1c(C)[nH]c(C(=O)Nc2nc(-c3ccc(Cl)cc3)cs2)c1C,i,0.92,111,3,0.1,33,129
O=C(CSc1nnc(-c2cccs2)o1)NCC1CN(Cc2ccccc2)CCO1 (stereo unspecified),i,0.87,68,-10,1.2,-76,92
COC(=O)c1c(NC(=O)C(C)(C)C)sc2c1C(C(=O)OC)CC2 (stereo unspecified),i,0.94,89,-8,-0.4,31,122
COc1ccc(NS(=O)(=O)c2cc(NC(=O)/C=C/c3ccccc3OC)ccc2N2CCCCC2)cc1,i,0.79,112,5,-2.1,23,138
CCS(=O)(=O)N1CCN(Cc2ccncc2)CC1,i,0.81,107,-8,-0.7,.,.
O=C(COC(=O)c1ccc(=O)[nH]c1)Nc1cccc(S(=O)(=O)N2CCOCC2)c1,i,0.88,103,.,.,.,.
COC(=O)c1cc(NS(=O)(=O)c2ccc(N3CCCCC3)c([N+](=O)[O-])c2)cc(C(=O)OC)c1,i,0.85,97,0,-3.7,46,84
CCOC(=O)c1c(NC(=O)C2C3CCC(O3)C2C(=O)O)sc2c1CCC(CC)C2 (stereo unspecified),i,0.93,100,-7,.,50,79
COc1ccc(NC(=O)Nc2cccc(Cl)c2Cl)c(OC)n1,i,0.99,103,.,.,.,.
C=CCn1c(SCC(=O)c2ccc(OC)cc2)nnc1-c1cc2cccc(OC)c2o1,i,0.97,99,-2,-2.1,5,93
CCCc1cc(=O)[nH]c(SCC(N)=O)n1,i,0.91,107,-4,-0.2,.,.
CCc1ccc(NC(=O)C2C3C=CC(C4CC34)C2C(=O)O)cc1 (stereo unspecified),i,0.93,190,1,-2.7,-17,62
Cc1c(C(=O)NCCSCc2ccco2)cccc1[N+](=O)[O-],i,0.95,113,-6,-0.8,-16,130
COc1ccc2c(n1)Sc1nc3ccccc3nc1N2,?,.,105,.,.,.,.
COc1cc(C(=O)NCCN2CCOCC2)cc(OC)c1OC,i,1,99,3,-2.2,42,96
CCN(CC)C(=O)CSc1nc2ccccc2c(=O)n1CCC(=O)N1CCN(c2ccccc2)CC1,i,0.96,102,-3,.,0,78
COc1ccc(-n2nnnc2SCC(=O)Nc2nnc(C)s2)cc1,?,.,88,0,-0.8,-51,33
CN(C)S(=O)(=O)N(CC(=O)N1CCOCC1)c1ccccc1,i,1,523,8,-0.9,7,94
Cc1cccc2cc(C#N)c(NCCNC(=O)NC3CCCCC3)nc12,i,0.9,98,1,0.2,-14,84
Nc1c(C(=O)Nn2cnnc2)cc([N+](=O)[O-])cc1[N+](=O)[O-],i,1,118,5,-0.8,.,.
CCN(CC)S(=O)(=O)c1cccc(C(=O)OCC(=O)N2CC(=O)Nc3ccccc32)c1,i,0.94,97,-4,-1.6,3,93
COc1ccc(NS(=O)(=O)c2cc(NC(=O)c3ccco3)ccc2N2CCCC2)cc1,i,1.1,102,6,0.0,.,.

# Sorted by molecular weight (low to high): three of the compounds above
SMILES,HSV replic up,HSV replic up primary fold,RGS16-Gao,PKD1 inh,GALR2 ag,INS promoter inh,INS promoter inh cell count
CCS(=O)(=O)N1CCN(Cc2ccncc2)CC1,i,0.81,107,-8,-0.7,.,.
CCOC(=O)c1c(NC(=O)C2C3CCC(O3)C2C(=O)O)sc2c1CCC(CC)C2 (stereo unspecified),i,0.93,100,-7,.,50,79
COc1ccc(NS(=O)(=O)c2cc(NC(=O)c3ccco3)ccc2N2CCCC2)cc1,i,1.1,102,6,0.0,.,.

# The listing continues.
SMILES,HSV replic up,HSV replic up primary fold,RGS16-Gao,PKD1 inh,GALR2 ag,INS promoter inh,INS promoter inh cell count
Cc1ccc2nc(Cl)c(C3CC(c4cccs4)=NN3C(=O)CCCC(=O)O)cc2c1 (stereo unspecified),i,0.9,125,-3,-0.5,0,45
Cc1cccc(CN2CCC(CNC(=O)CCNC(=O)Cn3ccc4ccccc4c3=O)CC2)c1,i,0.86,108,-3,-0.6,.,.
COc1cccc(C2=CC(c3ccc(OC)c(OC)c3OC)n3nnnc3N2)c1 (stereo unspecified),i,1.1,100,3,-2.3,-7,94
COc1cccc(NC(=O)CSCc2n[nH]c(=O)[nH]2)c1,i,0.9,99,-3,-2.6,23,131
O=C(/C=C/c1cc(Br)ccc1O)c1ccco1,i,0.66,102,.,.,.,.
CC(=O)c1ccc(N/N=C(/C(N)=O)C2=NC(C)(C)Cc3ccccc32)cc1,.,.,69,1,-2.0,-8,122
Cc1ccccc1OCc1nnc(SCC(=O)Nc2ccc3nc(SCC(=O)Nc4ccccc4)sc3c2)n1C,i,0.85,98,-2,-2.4,-33,93
COc1ccc(N2C(=O)C(F)(F)C2c2cccc(F)c2)cc1 (stereo unspecified),i,0.93,97,-2,.,.,.
COc1ccc2oc3cc(C)[n+]([O-])c(-c4ccc(C)cc4)c3c2c1,i,0.91,93,-1,0.2,-14,74
N#CC(C#N)=NNc1ccc([N+](=O)[O-])cc1,i,0.6,107,.,.,.,.
O=C(CSC1c2ccccc2C(=O)N1c1ccccc1)N1CCOCC1 (stereo unspecified),i,1.7,91,-23,-0.5,32,63
O=C(O)c1ccccc1-c1ccccc1C(=O)Nc1cccc(-c2nc3ccccc3o2)c1,i,1,125,-2,.,40,72
COC(=O)CSc1c(-c2ccccc2)c2cc(Cl)ccc2[nH]c1=O,i,0.82,105,4,1.4,0,91
COCCCNc1nc2c(c(=O)[nH]c(=O)n2C)n1CCCc1ccccc1,i,0.88,80,-7,1.9,.,.
CCC(C)NC(=O)CS(=O)Cc1nc(-c2ccccc2C)oc1C (stereo unspecified),.,.,106,-6,-2.8,.,.
CCCCN(C)C(=O)CCC(=O)Nc1ccc2nc(N3CCOCC3)cc(C)c2c1,i,0.81,90,7,-1.1,.,.
CC(C)[C@H](NC(=O)NCc1cccs1)C(=O)O,i,1,97,0,-2.4,.,.
O=C(COc1ccccc1O)c1cccs1,i,0.93,103,0,-1.6,-19,79
CCOC(=O)CSc1nc(C)nc2c1sc1nc(C)c(C(C)=O)c(-c3ccc(OC)cc3)c12,i,0.89,113,0,-0.9,26,133
COc1ccccc1CNc1ncnc2cc(Cl)ccc12,i,1,100,-4,.,31,75
O=C(NC1CCCCCCC1)C1=COCCO1,i,0.98,105,-10,-1.1,.,.
O=C(c1ccccc1O)N1N=C(c2ccccc2)CC1(O)C(F)(F)F (stereo unspecified),i,0.8,96,4,.,.,.
Cc1ccc2c(c1)N(CCC(=O)NCCN1CCOCC1)C(=O)CO2,i,1,101,9,-2.0,.,.
CNC(=O)/C(=C\c1ccc([N+](=O)[O-])cc1)NC(C)=O,.,.,102,1,-2.9,.,.
CN(C)CCCN(C(=O)COc1ccccc1)c1nc2ccc(F)cc2s1,i,0.91,104,-4,.,.,.
NNC(=O)C1CC1c1ccccc1 (stereo unspecified),i,1.1,97,-15,0.3,.,.
CCOC(=O)c1sc(NC(=O)C(CC)Sc2nc3ccccc3[nH]2)nc1C (stereo unspecified),i,0.99,.,1,-1.1,30,107

# Record cards (already shown):
# Shown for `CNC(=O)/C(=C\c1ccc([N+](=O)[O-])cc1)NC(C)=O` → HSV replic up = .; HSV replic up primary fold = .; RGS16-Gao = 102; PKD1 inh = 1; GALR2 ag = -2.9; INS promoter inh = .; INS promoter inh cell count = .
# Shown for `CCOC(=O)c1sc(NC(=O)C(CC)Sc2nc3ccccc3[nH]2)nc1C` (stereo unspecified) → HSV replic up = i; HSV replic up primary fold = 0.99; RGS16-Gao = .; PKD1 inh = 1; GALR2 ag = -1.1; INS promoter inh = 30; INS promoter inh cell count = 107
